Screens as filed in PubChem.
VDR inh – inhibitors of human vitamin D receptor; P11473; VDR-SRC2-3 peptide fluorescence polarization, 2 h; Potency, µM, inactives show max response, negative = inhibition, hits mostly inhibitors; 400,000 compounds, 0.93% hits; active = well fitted inhibition curve with a large enough effect; inconclusive = small, poorly fitted or top-dose-only effect, or another doubt; inactive = no such curve, though single readings can be large or run the other way; note: series mostly up to about 120 µM
Target sequence (P11473 whole entry, looked up): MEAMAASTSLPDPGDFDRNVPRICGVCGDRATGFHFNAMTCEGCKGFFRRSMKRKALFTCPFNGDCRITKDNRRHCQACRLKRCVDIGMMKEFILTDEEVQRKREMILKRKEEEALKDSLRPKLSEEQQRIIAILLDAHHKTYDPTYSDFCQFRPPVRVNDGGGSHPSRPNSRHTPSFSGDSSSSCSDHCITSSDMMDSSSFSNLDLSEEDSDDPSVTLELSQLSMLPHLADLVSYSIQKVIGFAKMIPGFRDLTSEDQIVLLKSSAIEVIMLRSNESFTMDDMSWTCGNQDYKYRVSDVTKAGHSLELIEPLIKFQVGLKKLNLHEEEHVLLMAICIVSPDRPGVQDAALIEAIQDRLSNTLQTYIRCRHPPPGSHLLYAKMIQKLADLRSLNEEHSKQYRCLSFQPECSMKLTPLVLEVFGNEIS
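Reagent solutions, kept cold and dark, are dispensed first; compounds are then pinned in at 23 nl, plates briefly spun, and incubated 2 h at ambient temperature. Inhibition of VDR–SRC2-3 peptide binding is read by fluorescence polarization.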
Numbers without * were called inactive; ? = inconclusive; & = joins results of further samples. % is set by controls: 0 for no effect and ±100 for the full control effect; potency is the fitted concentration of half-maximal effect.

CC1(C)OC(c2ccccc2)=C/C(=C/C=C2C(=O)NC(=S)NC2=O)O1
  VDR inh = -24%
O=C(C[N+]12CCC(CC1)C(CO)C2)c1ccc(Br)cc1 (stereo not given)
  VDR inh = -16%
CCC(C(=O)Nc1ccccc1F)N1C(=O)CN=C(c2ccccc2)c2ccccc21 (stereo not given)
  VDR inh = -13%
c1cncc([C@@H]2CCCCN2)c1
  VDR inh = 6%&6%
COC(=O)C1=C(c2ccc(OC(F)(F)F)cc2)C[C@@H]2CC[C@H]1N2C(=O)N1CCC(O)CC1
  VDR inh = -11%
CC1=C(C(=O)O)N2C(=O)C(NC(=O)c3nn(C)cc3[N+](=O)[O-])C2SC1 (stereo not given)
  VDR inh = ?
O=c1[nH]c(=S)n(-c2cccc(Cl)c2)c(O)c1C=NCCN1CCNCC1
  VDR inh = -1%
Cc1ccnc(-n2c(C)cc(C=C3C(=O)N(C)C(=S)N(C)C3=O)c2C)c1
  VDR inh = ?
COc1ccc(/C=C/C(=O)NC(=S)N2C[C@H]3C[C@H](C2)c2cccc(=O)n2C3)cc1
  VDR inh = 17%
CCOC(=O)C1C(=O)NC2(C)CC1c1cc(OC)ccc1O2 (stereo not given)
  VDR inh = 5%

O=C1C2CCCN2C(c2cccnc2)N1c1nccs1 (stereo not given)
  VDR inh = 7%
CN(C)C(=O)Oc1ccnc2cc(Cl)ccc12
  VDR inh = 2%
S=C=NCc1ccccc1
  VDR inh = 40µM*
CCc1ccc(-n2nc(C)c3c2NC(=O)CSC3c2ccc(OC)cc2OC)cc1 (stereo not given)
  VDR inh = 10%
CN1Cc2c(ccc3c2OCO3)[C@@H]2[C@@H](O)Cc3cc4c(cc3[C@@H]21)OCO4
  VDR inh = -1%
CCC1(c2ccccc2)CCC(=O)NC1=O (stereo not given)
  VDR inh = 4%
COc1ccc(CC(=O)N2C[C@H]3C[C@@H](C2)c2cccc(=O)n2C3)cc1
  VDR inh = -5%
Cc1cccc(C)c1NC(=O)CN(C)CC(=O)Nc1ccc(C#N)c(Cl)c1
  VDR inh = 7%
O=C(O)c1ccc([N+](=O)[O-])c([N+](=O)[O-])c1
  VDR inh = -3%
C[C@H]1CCC[C@@H](O)CCC/C=C/c2cc(O)cc(O)c2C(=O)O1
  VDR inh = -2%

Ordered by formula weight (falling): part of the list above
CCc1ccc(-n2nc(C)c3c2NC(=O)CSC3c2ccc(OC)cc2OC)cc1 (stereo not given)
  VDR inh = 10%
COc1ccc(CC(=O)N2C[C@H]3C[C@@H](C2)c2cccc(=O)n2C3)cc1
  VDR inh = -5%
C[C@H]1CCC[C@@H](O)CCC/C=C/c2cc(O)cc(O)c2C(=O)O1
  VDR inh = -2%
O=C1C2CCCN2C(c2cccnc2)N1c1nccs1 (stereo not given)
  VDR inh = 7%
CN(C)C(=O)Oc1ccnc2cc(Cl)ccc12
  VDR inh = 2%
O=C(O)c1ccc([N+](=O)[O-])c([N+](=O)[O-])c1
  VDR inh = -3%
S=C=NCc1ccccc1
  VDR inh = 40µM*

Later entries.
CCc1ccc(C(=O)C23CN4CN(CN(C4)C2)C3)cc1
  VDR inh = -8%
CCN1CCN(Cc2ccc(C)cc2C)CC1
  VDR inh = 2%
O=c1[nH]c(=S)n(C2CC2)c(O)c1C=NCC1CCCO1 (stereo not given)
  VDR inh = -16%
COc1ccc(CN2CC3CC(C2)c2cccc(=O)n2C3)cc1OC (stereo not given)
  VDR inh = -5%
CCCCCCN1CCN(c2ccc(Cl)cc2)CC1
  VDR inh = -6%
CCOC(=O)C1=C(C)OC(N)=C(C(=O)OC)C12C(=O)Nc1ccc(Br)cc12 (stereo not given)
  VDR inh = -5%
C[C@H]1O[C@@H](OC2CC[C@]3(C=O)[C@H]4CC[C@]5(C)[C@@H](C6=CC(=O)OC6)CC[C@]5(O)[C@@H]4CC[C@]3(O)C2)CC2OC(C)(C)OC21 (stereo not given in full)
  VDR inh = -8%
COc1ccc(/C=C/C2=CCN(C)CC2)cc1
  VDR inh = -7%
CCCc1[nH]nc2c1C(c1ccc(OC)c(Cn3nnc4ccccc43)c1)C(C#N)=C(N)O2 (stereo not given)
  VDR inh = ?
CC(C)C(=O)NC(Oc1ccccc1Cl)C(Cl)(Cl)Cl (stereo not given)
  VDR inh = 15%

CC1(C)CN=C(Nc2ccc(F)c(F)c2)S1
  VDR inh = 6%
CCOc1cc(C2NCc3ccccc3-n3cccc32)ccc1O (stereo not given)
  VDR inh = 16%
OC(CN1CC=C(c2ccccc2)CC1)c1ccccc1 (stereo not given)
  VDR inh = 9%
CN(C)C(=O)Oc1ccc(Cl)c2ccccc12
  VDR inh = 0%
COC(=O)C1=C(c2ccccc2OCc2ccccc2)C[C@@H]2CC[C@H]1N2C(=O)NCc1ccc(Br)cc1
  VDR inh = -12%
CC(C)OCCCNC(=O)c1c(N)n(CC2CCCO2)c2nc3ccccc3nc12 (stereo not given)
  VDR inh = ?
COc1cc2c(cc1OC)-c1c(OC)c(OC)c(C=O)c3c1[C@H](C2)N(C)CC3
  VDR inh = 8.9µM*
CCc1cc(=O)oc2cc(OCC(=O)N3C[C@H]4C[C@@H](C3)c3cccc(=O)n3C4)c(Cl)cc12
  VDR inh = 6%
CCn1c(O)c(C=NCCN2CCOCC2)c(=O)[nH]c1=S
  VDR inh = -15%
C=CCN1C(=O)NC(=O)C(Cc2ccc(OC)c(OC)c2)C1=O (stereo not given)
  VDR inh = ?

O=c1[nH]c(=O)n(-c2cccc3ccccc23)c(O)c1/C=N/N1CCCCCC1
  VDR inh = -3%
COc1ccccc1/C=C1\C(=O)NC(=S)N(c2ccccc2)C1=O
  VDR inh = 50µM*
N/C(=N\[N+](=O)[O-])N1CCN(C(=O)OC2CCCC2)CC1
  VDR inh = -7%
COc1ccc(N2CCN(Cc3nc4ccccc4[nH]3)CC2)cc1
  VDR inh = -1%
O=C(c1ccc2nc3ccc(Cl)cc3c(=O)n2c1)N1CCC2(CC1)OCCO2
  VDR inh = 3%
CN(N=O)c1ccc(O)c(O)c1
  VDR inh = 35µM*
CCC(CC)C(=O)NC1CCSC1=O (stereo not given)
  VDR inh = -1%
Cn1cc(C(=O)N2CCOCC2)c2ccccc21
  VDR inh = 27%
CC(C)(C)c1ccccc1O
  VDR inh = -15%
CCOC(=O)[C@]1(C#N)[C@@H]2C=CC(C(N)=O)=CN2[C@@H](C(N)=O)[C@@H]1c1ccc(F)cc1
  VDR inh = ?

(further entries)
SMILES | VDR inh
Cc1c(C(=O)N2CCC3(CC2)OCCO3)sc2ncnc(N3CCc4ccccc4C3)c12 | 13%
Cc1nc2cc([N+](=O)[O-])ccc2c(=O)n1-c1ccc(Br)cc1 | -15%
O=C1CNC(c2ccccc2Cl)c2cc(Br)ccc2N1 (stereo not given) | -7%
Cc1cc(C)n2nc(SCC(=O)N3CCC4(CC3)OCCO4)nc2n1 | 8%
NC(=O)COc1c(F)cc(SCCNS(=O)(=O)c2ccccc2)cc1F | 10%
OC[C@@H]1[C@@H](O)[C@H](O)[C@H]2[C@@H](O)CCN21 | -2%
O=C1NC(=O)c2c1c1c3ccccc3[nH]c1c1[nH]c3ccccc3c21 | -26%
CC(C)CCC(=O)OC1CCC2C3CCC4=CC(=O)CC[C@]4(C)C3CC[C@]12C (stereo not given in full) | ?
COc1ccccc1NS(=O)(=O)c1cc(NC(=O)c2ccc(Cl)nc2)ccc1N1CCCC1 | ?
OC1/C(=C/c2ccc(Cl)cc2Cl)N2CCC1CC2 (stereo not given) | 0%
O=c1[nH]c(=O)n(CCc2ccc(F)cc2)c(O)c1C=NCCCN1CCOCC1 | -13%
CC(C)Nc1nc(Cl)nc(NC(C)C)n1 | 3%&14%
Cc1ccc(-c2cc(-c3ccccc3)cc(-c3ccccc3)[n+]2-c2ccccc2C(=O)O)cc1 | -17%
CC/C(=N\NC(=O)c1ccccc1Cl)c1c(O)n(C2CCCCC2)c(=O)[nH]c1=O | 4%
CC(C)CCC1(CN2CCCC2=O)C(=O)NC(=O)NC1=O | -11%
COc1cc2[nH]c(=O)n(-c3ccccc3)c(=O)c2cc1OC | -26%
O[C@H]1[C@H](O)[C@@H](O)CN2CC[C@H](O)[C@H]12 | 8%&3%&-2%
C[C@@H]1O[C@H](O[C@@H]2C=C3CC[C@H]4[C@@H](CC[C@]5(C)[C@@H](c6ccc(=O)oc6)CC[C@]45O)[C@@]3(C)CC2)[C@@H](O)[C@H](O)[C@@H]1O | -10%
CN1C(=O)N(C)C(=O)C2(Cc3c(ccc4ccccc34)N(C)C2)C1=O | 0%
CO/C1=C\C(C)=C\[C@@H](C)[C@@H](O)[C@@H](C)C/C(C)=C/C=C\[C@H](OC)C([C@@H](C)[C@@H](O)[C@H](C)[C@@]2(O)C[C@@H](O)[C@H](C)C(C(C)C)O2)OC1=O (stereo not given in full) | 2%
O=C(c1ccc(Br)cc1)C12CN3CN(CN(C3)C1)C2 | 8%
CC1CCCCN1Cc1c[nH]c2ccccc12 (stereo not given) | -16%
COC(=O)C1=C(c2ccc(-c3ccccc3)c(F)c2)C[C@@H]2CC[C@H]1N2C(=O)NCc1cc(C)oc1C(F)(F)F | -11%
CCN(CC)C(=O)c1ccc(NC(=O)CSc2nnnn2-c2cc(OC)ccc2OC)cc1 | 17%
CC/C(=N\N1CCCCCC1)c1c(O)n(-c2ccc(C)cc2)c(=O)[nH]c1=O | -24%

Random excerpt: 4 records from the list
SMILES | VDR inh
CC(C)CCC(=O)OC1CCC2C3CCC4=CC(=O)CC[C@]4(C)C3CC[C@]12C (stereo not given in full) | ?
O=C(c1ccc(Br)cc1)C12CN3CN(CN(C3)C1)C2 | 8%
O=C1NC(=O)c2c1c1c3ccccc3[nH]c1c1[nH]c3ccccc3c21 | -26%
CCN(CC)C(=O)c1ccc(NC(=O)CSc2nnnn2-c2cc(OC)ccc2OC)cc1 | 17%

Remaining list, next part:
SMILES | VDR inh
CC(=O)c1ccc(NC2=NCCCS2)cc1 | 8%
CC(=O)C1CCC2C3CC(O)C4CC(O)CCC4(C)C3CCC12C (stereo not given) | 9%
CCN(C=C1CC2C3CC=C4CC(O)CCC4(C)C3CCC2(C)C1=O)CC (stereo not given) | -8%
O=c1c2ccccc2[nH]c(=S)n1-c1ccc2c(c1)OCCO2 | -1%
CCOc1cccc(OCC)c2c(C)[n+](CC3CCCO3)c(C)c1-2 (stereo not given) | -29%
O=C(c1cc2cc(Br)ccc2[nH]1)N1CCC2(CC1)OCCO2 | -10%
CON(C)C(=O)Nc1ccc(Br)c(Cl)c1 | 6%
CCOC(=O)C1=C(N)OC2=C(C(=O)CCC2)C12C(=O)N1c3c(ccc(C)c32)C(C)=CC1(C)C (stereo not given) | 20%
CCCCn1c(O)c(C(C)=NCCc2c[nH]c3ccccc23)c(=O)[nH]c1=O | 7%
CCCCCCCCC(=O)NCc1ccc(O)c(OC)c1 | -15%&7%
Cc1ccccc1-n1c(O)c(/C=N/NC(=O)c2ccccc2O)c(=O)[nH]c1=S | ?
CN(C)C(=O)Oc1ccc2ccccc2c1Cl | 2%
CCCCN=Cc1c(O)n(-c2c(C)cc(C)cc2C)c(=O)[nH]c1=O | -3%
CCN(CC)CCN=Cc1c(O)n(CCC2=CCCCC2)c(=O)[nH]c1=O | -3%
CSc1cccc(NP2(=O)OCC(C)([N+](=O)[O-])CO2)c1 (stereo not given) | -11%
Cc1c(N=Cc2c(O)n(Cc3ccccc3)c(=O)[nH]c2=O)c(=O)n(-c2ccccc2)n1C | -16%
COCCOC(=O)c1c(N)n(Cc2ccc(OC)cc2)c2nc3ccccc3nc12 | -12%
C=CCN1C(=O)NC(=O)/C(=C/c2ccc(OCC(=O)Nc3ccc(C)cc3)cc2)C1=O | 71µM*
COP(=S)(OC)Oc1ccc([N+](=O)[O-])c(C)c1 | 22µM*
Cc1ccc(-n2c(O)c(/C=N/Nc3ccccc3)c(=O)[nH]c2=O)cc1C | 3%
CCCCn1c(O)c(C=Nc2c(C)n(C)n(-c3ccccc3)c2=O)c(=O)[nH]c1=O | -2%
O=c1c2cc(Cl)cc(Cl)c2nc(CN2CCOCC2)n1-c1ccccc1F | -5%
CN1CCN(/N=C/c2c[nH]c3ccccc23)CC1 | -6%
COc1ccc(NC(=S)NC(NC(=O)CF)C(Cl)(Cl)Cl)c([N+](=O)[O-])c1 (stereo not given) | 16%
CCOC(=O)c1ncn2c1[C@H]1CCCN1C(=O)c1cc(OC)ccc1-2 | 7%

(listing goes on)
SMILES | VDR inh
O=C1NC(=S)NC(=O)C1=Cc1ccc(OCC(=O)N2CCCC2)cc1 | 45µM*
CNCC(O)c1ccc(O)cc1 (stereo not given) | 1%&13%
COc1ccc(N2C(=O)/C(=C/c3ccc(N(C)C)o3)C(=O)NC2=S)cc1 | 0%
CCN1CC2([N+](=O)[O-])CC=C(Cl)C([N+](=O)[O-])(C1)C2 (stereo not given) | -1%
O=C1OCc2cc(N=Nc3c(O)[nH]c(=O)[nH]c3=O)ccc21 | -12%
CCCCCCCCCCCCCC(=O)O[C@@H]1[C@@H](C)[C@@]2(O)[C@H](C=C(CO)C[C@]3(O)C(=O)C(C)=C[C@@H]23)[C@@H]2C(C)(C)C12OC(C)=O (stereo not given in full) | -3%
CN(c1ccccc1)P(=O)(N1CC1)N1CC1 | -1%
N=C1SCC(=O)N1Cc1ccccc1 | 12%
C=CCN1CCC23c4c5ccc(O)c4OC2/C(=N/N=C2\CCC4(O)C6Cc7ccc(O)c8c7C4(CCN6CC=C)C2O8)CCC3(O)C1C5 (stereo not given) | -12%
CCc1sc(C(=O)N2CCC3(CC2)OCCO3)cc1Br | -6%
CCN1C[C@]2(OC(=O)c3ccccc3NC(C)=O)CCC(OC)C34C5C[C@H]6C(OC)[C@]5(O)[C@](O)(C[C@@H]6OC)C(C[C@@H]32)[C@H]14 (stereo not given in full) | 5%
O=c1[nH]c(=S)n(C2CC2)c(O)c1C=NCCc1ccccc1 | -11%
CC/C=C\C/C=C\C/C=C\C/C=C\C/C=C\CCCC(N)=O | -1%
CSc1ccc(CNC(C)C(O)c2ccccc2)cc1 (stereo not given) | 20%

Only part of the results is shown, so the mix of outcomes need not match the whole.
